# From PubChem BioAssay
# Rango release inh: prevents RanGTP from dissociating the Rango-importin beta complex. O95149+P62826. Biochemical FRET Rango-importin beta, RanGTP-induced dissociation. Potency, µM (series often up to 46.1 µM), without a hit: at the highest dose activity change, negative = inhibition. 340,000 compounds, 0.071% hits. AID 540253; active means falling FRET ratio curve, often poorly fitted, with flat reads before Ran was added; inconclusive means other falling curves, or compound fluorescence or quenching; inactive means flat or rising ratio curve;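 note: potency is the fitted concentration of half-maximal effect; % of control where 0% means no effect; nearly all actives have a fitted effect of over 45% in size; -100% = wells without RanGTP and RCC1; the record marks most hits as doubtful in a second field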
#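 Quantitative HTS using a FRET biosensor: 0.1 uM Rango, 0.25 uM importin beta, 0.6 uM Ran, 2 mM GTP, 0.2 uM RCC1 final, PBS with DTT, Tween-20 and BSA. Post-read taken 45 min after Ran addition.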
# GLA inh pH 4.5: alpha-galactosidase A (human) inhibition, pH 4.5; purified enzyme, 4-MU-alpha-Gal fluorescence, pH 4.5; activity change, negative = inhibition, % at 105 µM; 230,000 tested, under 10 active; inconclusive = small, poorly fitted or top-dose-only inhibition, or a rising curve; inactive = flat fitted curve, though single readings scatter; no compound was filed as active;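 note: 0% = full activity with enzyme and -100% = basal without enzyme; dose as in the result columns while the protocol names 77 µM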
# miR-21 reporter: miR-21 reporter, rising signal | HeLa miR-21 FLuc reporter, luciferase, 48 h | AID 2288 | 340,000 tested, under 10 active | Potency, µM (series often up to 38.3 µM), for the others: top-dose reporter change, positive = more light; active = well fitted rising curve with a large enough effect; inconclusive = small, poorly fitted or top-dose-only effect; inactive = no such curve, though single readings can be large or run the other way;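 note: % of control where 0% means no effect; miR-21 action dims this reporter so a rising signal means less miR-21 action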
#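 Compounds were titrated across several concentrations (up to approximately 40 uM) and incubated 48 hours with HeLa miR-21-FLuc reporter cells (miR-21 target sequence downstream of FLuc, endogenous miR-21). Readout was firefly luciferase luminescence after lytic detection reagent.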
# Rango complex inh: prevents formation of the Rango-importin beta complex. Rango CFP/YFP FRET sensor + importin beta, 45 min. Potency, µM (series often up to 92.2 µM), without a hit: top-dose inhibition of complex formation. 340,000 compounds, 0.031% hits. AID 540263; active = rising FRET ratio curve, often small or poorly fitted; inconclusive = mostly compound fluorescence or quenching in the first reads; inactive = flat curves in all reads;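 note: potency is the fitted concentration of half-maximal effect; 0% = DMSO wells and 100% = buffer wells lacking importin beta; nearly all actives have a fitted effect of over 15% in size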
# Target sequence (Q14974 whole entry, looked up): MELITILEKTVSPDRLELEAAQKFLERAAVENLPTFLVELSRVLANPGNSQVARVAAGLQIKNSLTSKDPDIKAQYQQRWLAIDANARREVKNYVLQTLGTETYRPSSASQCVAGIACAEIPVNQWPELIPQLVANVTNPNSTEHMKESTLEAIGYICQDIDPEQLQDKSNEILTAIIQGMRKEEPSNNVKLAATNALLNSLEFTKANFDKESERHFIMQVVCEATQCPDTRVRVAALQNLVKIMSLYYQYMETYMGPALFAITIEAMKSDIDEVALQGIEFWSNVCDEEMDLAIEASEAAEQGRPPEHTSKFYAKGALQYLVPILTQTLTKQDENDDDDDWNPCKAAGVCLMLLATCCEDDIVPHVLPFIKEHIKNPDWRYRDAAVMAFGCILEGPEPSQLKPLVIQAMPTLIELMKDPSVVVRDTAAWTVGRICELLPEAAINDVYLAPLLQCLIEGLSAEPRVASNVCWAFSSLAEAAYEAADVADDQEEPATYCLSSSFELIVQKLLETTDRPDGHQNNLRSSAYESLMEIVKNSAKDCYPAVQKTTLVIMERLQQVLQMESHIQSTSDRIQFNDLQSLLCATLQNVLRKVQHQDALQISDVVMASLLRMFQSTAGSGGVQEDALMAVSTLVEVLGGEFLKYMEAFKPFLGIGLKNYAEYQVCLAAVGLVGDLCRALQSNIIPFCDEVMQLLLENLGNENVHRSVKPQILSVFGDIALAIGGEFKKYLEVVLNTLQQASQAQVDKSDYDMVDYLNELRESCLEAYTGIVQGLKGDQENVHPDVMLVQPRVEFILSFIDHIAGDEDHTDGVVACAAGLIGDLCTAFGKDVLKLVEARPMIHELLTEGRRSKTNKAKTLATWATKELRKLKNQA
#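 FRET biosensor (snurportin 1 IBB flanked by EYFP and cerulean), 50 nM, with compound 5 min, then 0.125 microM importin beta in PBS, 1 mM DTT, 0.02% Tween-20, 0.1% BSA. CFP/YFP ratio read after 45 min at room temperature; pre-read flags interference.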
# * = called active by the depositor; u = inconclusive; x = not tested or not shown; [ ] = another dose, or the depositor's remark.
Rango release inh | GLA inh pH 4.5 | miR-21 reporter | Rango complex inh | molecule
0.4% | -17.3 | 0.5% | -1.2% | COc1ccc(CC(=O)NNC(=O)c2ccc(NC(C)=O)cc2)cc1
-23.7% | 5.0 | -1.0% | -1.5% | Cn1nnnc1SCCNCc1cccnc1
8.1% | 2.8 | -7.7% | -1.2% | COc1ccc(N2CC(C(=O)OCC(=O)NCc3ccccc3)CC2=O)cc1 (stereo not given)
13.0% | -5.4 | -7.0% | 2.2% | O=C1Nc2cc(Cl)ccc2C1(N1CCNCC1)C(F)(F)F (stereo not given)
-5.4% | x | x | -0.8% | COc1cc(OC)cc(C(=O)NC(C(=O)Nc2ccc3nc(C)sc3c2)C(C)C)c1 (stereo not given)
-2.4% | -3.2 | 0.1% | u | O=C(c1ccc(-n2c(SCc3cccc(F)c3)nc3ccccc3c2=O)cc1)N1CCOCC1
9.7% | 5.4 | -1.1% | -1.0% | O=C(CSc1n[nH]c(-c2cccs2)n1)NCc1cccs1
-2.5% | x | x | 1.2% | O=C(COC(=O)/C=C/c1ccccc1[N+](=O)[O-])NCc1ccco1
0.1% | 0.3 | -1.2% | 0.3% | c1ccc(C2NCCc3ccccc32)cc1 (stereo not given)
2.0% | 4.2 | -18.9% | 0.7% | COc1cccc(-n2nnc3c(=O)n(Cc4cccc(C)c4)cnc32)c1
19.5% | 3.0 | -2.5% | 1.8% | O=C(CCC1CCCN(C(=O)c2ccoc2)C1)NCc1ccc(F)c(F)c1 (stereo not given)
-11.9% | 24.2 | -10.0% | 2.1% | O=C(c1ccco1)N1CCN(C/C=C/c2ccccc2)CC1
-0.4% | -2.7 | -11.1% | 3.3% | CCNc1nc(N)nc(-c2cc(Cl)ccc2OC)n1
0.2% | -9.3 | -8.8% | 23.1µM* | COc1ccc(NC(=O)CSc2ccccc2)cc1S(=O)(=O)N1CCCCC1
-7.3% | 2.9 | -0.3% | -1.4% | CCOc1cc(C)cc2oc(=O)cc(-c3ccccc3)c12
1.6% | x | 0.2% | 0.4% | Cc1ccc(S(=O)(=O)N(CC(=O)N2CCOCC2)c2ccccc2F)cc1
-23.6% | -3.6 | -48.5% | u | CCCOC(=O)c1ccc(NC(=O)c2ccoc2C)cc1
-3.9% | x | x | -0.7% | Cc1cccc(NS(=O)(=O)c2ccc(C)c(C(=O)NCc3ccncc3)c2)c1
23.4% | 3.6 | -1.4% | 0.4% | CC1(C)N=C(c2cccs2)C(C)(C)N1O
17.5% | x | -4.1% | 0.9% | CC(C)N(C(=O)Cn1cc(S(=O)(=O)CC(=O)NCc2ccccc2)c2ccccc21)C(C)C

Rango release inh | GLA inh pH 4.5 | miR-21 reporter | Rango complex inh | molecule
0.3% | -8.4 | 0.1% | 0.3% | O=C(NCCCN1CCOCC1)C(=O)N/N=C/c1ccc(F)cc1
10.5% | x | x | -0.1% | COc1ccc(N2CCN(C(=O)COC(=O)COc3cc(C)cc(C)c3)CC2)cc1
-18.9% | -4.6 | u | -2.5% | C=CCc1cccc(/C=N/NC(=O)C(C)Nc2ccc(C)cc2)c1O (stereo not given)
-8.9% | x | x | -1.4% | COc1cccc2c(=O)c3c([nH]c12)OC(C)(C)C3
-6.7% | x | 1.9% | -1.7% | Cc1ccc(NS(=O)(=O)c2c(C)noc2C)cc1
11.8% | x | x | 0.9% | COc1ccc(NC(=O)CN(C)CC(=O)c2[nH]c(C)c(C(C)=O)c2C)cc1
-17.2% | -1.0 | 5.1% | u | Cc1ccc(O)c(N=Cc2cc(Cc3ccccc3)cc([N+](=O)[O-])c2O)c1
-15.8% | x | 3.5% | -5.5% | Cc1cc(=O)oc2cc(OCC(=O)NC3CC(C)(C)NC(C)(C)C3)ccc12
26.5% | x | x | 4.7% | COc1cc(C(C)=O)ccc1OCC(=O)Nc1ccc(C)c(S(=O)(=O)N2CCCCCC2)c1
-14.8% | 8.0 | 0.5% | -1.0% | COC(=O)C(NC(=O)CSc1nc(N)cc(=O)[nH]1)c1ccccc1 (stereo not given)
10.5% | 8.1 | -1.9% | 0.4% | O=C(COC(=O)CCC(=O)c1cccs1)Nc1ccc(S(=O)(=O)N2CCOCC2)cc1
-1.5% | 2.4 | -5.5% | 4.0% | CCCCOC(=O)Nc1cc(Cl)ccc1C
0.1% | 6.9 | -10.6% | -4.1% | O=C(NCc1ccc2c(c1)OCO2)C1CCN(S(=O)(=O)N2CCCCC2)CC1
29.2% | -2.4 | -11.9% | -0.3% | Nn1c(SCc2nc3ccccc3[nH]2)nnc1-c1ccccc1
-11.0% | 3.1 | -38.4% | 0.8% | Cc1ccc(CNC(=O)/C=C/c2cccs2)cc1
3.9% | x | -26.0% | 0.7% | Cc1ccc(-n2nc(C(=O)O)cc2-c2ccccc2Cl)cc1
3.4% | x | 2.5% | 1.3% | CC1CN(S(=O)(=O)c2cccc(C(=O)OC(C)C(=O)NC3CCCCC3C)c2)CC(C)O1 (stereo not given)
17.6% | -27.2 | 0.7% | -4.5% | O=C(Nc1ccc2oc(=O)ccc2c1)c1ccc(-c2ccccc2[N+](=O)[O-])o1
19.8% | 6.2 | -4.2% | 2.3% | CCN(CC)C(=O)c1ccc(C)c(Br)c1
-3.0% | x | 8.5% | 2.8% | CC(CN1CCC(n2nccc2NC(=O)CCCc2ccccc2)CC1)c1ccccc1 (stereo not given)

Rango release inh | GLA inh pH 4.5 | miR-21 reporter | Rango complex inh | molecule
-13.4% | 5.9 | -2.0% | 1.0% | CCOC(=O)c1ccc2c(c1)[n+](CC)c(C)n2-c1ccccc1
5.7% | 3.7 | -7.7% | -0.3% | COc1ccc(Br)cc1-c1noc(-c2ccccc2)n1
-11.9% | 4.6 | -3.4% | -1.7% | Cc1nc(Cl)sc1C(=O)NC(C)c1ccc(Cl)cc1 (stereo not given)
4.4% | 8.2 | -8.1% | 0.6% | C=CCNC(=O)c1ccccc1NC(=O)Nc1ccccc1
1.2% | x | 1.2% | -2.1% | CSc1ccc(CN(C)CCc2ccccn2)cc1
-4.4% | 1.2 | -0.8% | -0.8% | CCC(C)(C)n1nnnc1C(c1cccnc1)N1CCC(Cc2ccccc2)CC1 (stereo not given)
u | -9.3 | -7.6% | -2.5% | CN1CCN(c2ccc([N+](=O)[O-])cc2C(=O)N2CCCCC2)CC1
-2.7% | x | x | -2.0% | O=C(Cc1cccc(NC(=O)C2CCN(C(=O)C3CCCCC3)CC2)c1)Nc1cccc(C(=O)N2CCCC2)c1
-8.2% | -7.2 | -3.2% | 0.4% | Cc1ccc(S(=O)(=O)N2CCCOC2CNC(=O)C(=O)NCCC2=CCCCC2)cc1 (stereo not given)
u | -4.2 | -57.0% | -0.3% | CC(C)c1cc(C(F)(F)F)n2nc(C(=O)Nc3ccc4c(c3)OCO4)cc2n1
19.6% | -7.1 | -1.3% | 0.1% | COc1ccccc1CCN=C(N)NS(=O)(=O)c1ccccc1
2.9% | -10.8 | -7.8% | 0.6% | O=C(c1ccc2c(Cl)c3c(nc2c1)CCCC3)N1CCN(c2ccc(F)cc2)CC1
-0.1% | -13.8 | -10.3% | -5.1% | CN(C)c1cccc2c1C(=O)c1ccccc1C2=O
-7.2% | -3.9 | -1.1% | -0.7% | COc1ccc(CCNc2cc(=O)[nH]c(N)n2)cc1
-6.7% | x | x | 0.6% | CCCCn1c(N)c(N(CCOC)C(=O)CCCn2c(=O)oc3ccccc32)c(=O)[nH]c1=O
-0.2% | 3.6 | -0.7% | 4.3% | CCCC(=O)Nc1ccc(S(=O)(=O)Nc2cc(C)nc(C)n2)cc1
10.7% | 5.8 | -0.3% | -1.1% | Cc1c(Cl)cccc1-n1c(SCC(=O)N2CCC(C(=O)O)CC2)nnc1-c1ccncc1
16.7% | -8.3 | 1.6% | 0.8% | Cn1c(-c2ccc3c(c2)OCO3)cnc1NCc1ccc(Cl)cc1
-12.4% | -3.7 | -4.9% | 1.0% | CCOC(=O)c1[nH]c(C)c(C(=O)NC2CCCC2)c1C
-6.6% | 4.3 | -53.5% | 0.2% | c1ccc2nc(-c3ccc4c(c3)OCO4)ccc2c1

Rango release inh | GLA inh pH 4.5 | miR-21 reporter | Rango complex inh | molecule
-2.5% | x | x | -2.8% | CCN(c1ccccc1)S(=O)(=O)c1ccc(OC)c(NC(=O)C2CCC2)c1
4.7% | 9.3 | 1.6% | 3.4% | CCOC(=O)NC(=O)COC(=O)CNC(=O)c1cccc(OC)c1
25.3% | x | -45.5% | -0.4% | O=C(Nc1ccc(CN2CCOCC2)cc1)c1ccc(Br)o1
0.0% | -6.0 | 6.5% | -0.8% | O=C(Nc1ccc(S(=O)(=O)N2CCc3ccccc32)cc1)c1ccc2c(c1)OCO2
-1.5% | 1.5 | -39.1% | 0.8% | COc1ccc(-n2c(C)cc(C(=O)NC3CCCCC3)c2C)cc1
-2.9% | x | -0.1% | -2.1% | CCCCC(C(=O)NC(C)c1ccccc1)C(=O)NC(C)c1ccccc1 (stereo not given)
0.9% | -8.7[21.1 µM] | 4.7% | 0.4% | Cc1c(C(=O)NCCCN2CCOCC2)oc2ccc(S(=O)(=O)N3CCOCC3)cc12
6.5% | x | 0.5% | 0.7% | CCOC(=O)n1c(=O)oc2ccccc21
-5.4% | 3.9 | -1.9% | -2.2% | COc1nc(-c2ccccc2)cc(C(F)(F)F)n1
-0.3% | -0.5 | 0.5% | -1.3% | CCCOc1ccc(-c2nnn(CC(=O)OCC)n2)cc1
13.4% | -14.8[21.1 µM] | -12.2% | -3.2% | Cc1noc(/C=C/c2cccs2)c1S(=O)(=O)N1CCC(C(=O)NCCCN2CCCC(C)C2)CC1 (stereo not given)
4.1% | x | x | -1.1% | NS(=O)(=O)c1ccc(CNC(=S)Nc2cc(S(=O)(=O)N3CCOCC3)ccc2Cl)cc1
13.4% | -11.2 | -4.0% | 0.9% | O=C(CCS(=O)(=O)c1cccc2nsnc12)NC1CCCCC1
-19.0% | x | -6.7% | 2.1% | O=C(Nc1ncccc1O)c1ccc(OCC2CCCO2)cc1 (stereo not given)
-8.8% | -2.5 | 8.3% | 1.5% | Nc1nc2nccc(-c3ccccn3)n2n1
-11.6% | -13.0 | -53.4% | 2.9% | Cc1occc1C(=O)Nc1cc(C(C)(C)C)on1
0.3% | 3.1 | 0.6% | 4.1% | Cc1cccc2cc(C(c3nnnn3Cc3ccccc3)N3CCCc4ccccc43)c(=O)[nH]c12 (stereo not given)
20.6% | x | -2.2% | 6.8% | O=C1CN(C(=O)CNC(=O)c2ccc(Cl)cc2Cl)CCN1
-3.4% | 5.3 | -38.1% | -4.0% | COc1ccc2oc(-c3ccccc3)c(C(N)=O)c2c1
u | -18.9 | -33.9% | u | CCN1C(=O)/C(=C/C=C2/CCCN2C)OC1=S
-7.4% | x | x | 0.7% | CCNc1nc(NCC)n2c(SCC(=O)Nc3cc(OC)ccc3OC)nnc2n1

# A second format for twelve compounds above.
Molecule,Rango release inh,GLA inh pH 4.5,miR-21 reporter,Rango complex inh
CCCOc1ccc(-c2nnn(CC(=O)OCC)n2)cc1,-0.3%,-0.5,0.5%,-1.3%
Cc1noc(/C=C/c2cccs2)c1S(=O)(=O)N1CCC(C(=O)NCCCN2CCCC(C)C2)CC1 (stereo not given),13.4%,-14.8[21.1 µM],-12.2%,-3.2%
NS(=O)(=O)c1ccc(CNC(=S)Nc2cc(S(=O)(=O)N3CCOCC3)ccc2Cl)cc1,4.1%,x,x,-1.1%
O=C(CCS(=O)(=O)c1cccc2nsnc12)NC1CCCCC1,13.4%,-11.2,-4.0%,0.9%
O=C(Nc1ncccc1O)c1ccc(OCC2CCCO2)cc1 (stereo not given),-19.0%,x,-6.7%,2.1%
Nc1nc2nccc(-c3ccccn3)n2n1,-8.8%,-2.5,8.3%,1.5%
Cc1occc1C(=O)Nc1cc(C(C)(C)C)on1,-11.6%,-13.0,-53.4%,2.9%
Cc1cccc2cc(C(c3nnnn3Cc3ccccc3)N3CCCc4ccccc43)c(=O)[nH]c12 (stereo not given),0.3%,3.1,0.6%,4.1%
O=C1CN(C(=O)CNC(=O)c2ccc(Cl)cc2Cl)CCN1,20.6%,x,-2.2%,6.8%
COc1ccc2oc(-c3ccccc3)c(C(N)=O)c2c1,-3.4%,5.3,-38.1%,-4.0%
CCN1C(=O)/C(=C/C=C2/CCCN2C)OC1=S,u,-18.9,-33.9%,u
CCNc1nc(NCC)n2c(SCC(=O)Nc3cc(OC)ccc3OC)nnc2n1,-7.4%,x,x,0.7%

# This is a subset; rates above refer to the full screens.
